Screens: PubChem BioAssay, National Center for Advancing Translational Sciences (NCATS)
D2 ag – agonists of human D2 dopamine receptor (beta-arrestin) | 360,000 compounds, 0.084% hits | DiscoveRx PathHunter D2 beta-arrestin, luminescence, 90 min; 100% = 57 uM dopamine signal | AID 624465 | P14416 | activation, % (test concentration not listed); in the data active = activation above about 40%; inconclusive = about 15% to 40%; inactive = below about 15%; note: compound concentration not given in the record; the text of the record calls up to 30% inactive
Target sequence (P14416 whole entry, looked up): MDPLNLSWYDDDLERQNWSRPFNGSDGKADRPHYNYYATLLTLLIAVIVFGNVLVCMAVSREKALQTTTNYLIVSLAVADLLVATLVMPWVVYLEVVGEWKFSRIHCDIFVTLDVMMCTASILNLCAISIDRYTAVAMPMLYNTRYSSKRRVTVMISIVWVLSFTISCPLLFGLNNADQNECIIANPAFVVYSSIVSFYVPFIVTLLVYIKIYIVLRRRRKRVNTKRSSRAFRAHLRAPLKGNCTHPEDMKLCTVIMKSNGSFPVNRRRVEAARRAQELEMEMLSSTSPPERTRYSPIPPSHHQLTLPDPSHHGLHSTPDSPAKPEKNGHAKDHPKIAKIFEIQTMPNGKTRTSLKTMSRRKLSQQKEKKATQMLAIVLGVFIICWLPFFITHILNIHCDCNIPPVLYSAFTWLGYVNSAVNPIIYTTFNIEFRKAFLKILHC
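Agonist mode: compounds alone added to overnight-plated D2 PathHunter cells for 90 min at 37 C, with 57 uM final dopamine (EC100) defining full response. Beta-arrestin recruitment detected by chemiluminescent reagent, read after 1 h at ambient temperature.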
CtBP-E1A inh – CtBP/E1A binding inhibition | activity change, % (concentration not given with the values) | AID 651724 | AlphaScreen GST-E1A/His-CtBP binding, 1536-well; active compounds read low; control for the full effect not named in the record | 340,000 compounds, 0.49% hits; in the data active means activity change below about -65%; inconclusive means about -30% to -65%; inactive means above about -30%; note: % is set by controls: 0 for no effect and ±100 for the full control effect
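AlphaScreen with 125 nM GST-E1A and 125 nM His-CtBP (5X stocks) in Tris pH 8.0, 300 mM NaCl, BSA, Tween 20, TCEP. Compounds preincubated 2 h at 37 deg C, then glutathione donor/nickel acceptor beads added for 1 h at 37 deg C in dark.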
D2 PAM – potentiates the human D2 dopamine receptor allosterically. P14416. DiscoveRx D2 beta-arrestin cells, luminescence, 90 min; 100% = 57 uM dopamine signal. potentiation, % (no concentration beside the values). 360,000 compounds, 0.23% hits. AID 624464; active = potentiation of 50% or more; inconclusive = 30% to 50%; inactive = 30% or less;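 note: compound concentration not given in the record; tested on top of an EC20 dose of dopamine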
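D2 cells co-treated with compound plus 50 nM dopamine (EC20) for 90 min at 37 deg C to detect potentiation. Beta-arrestin recruitment was read as enzyme-fragment luminescence after 1 h at ambient temperature. Full response was set by 57 uM dopamine.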
Six1-Eya2 inh – Six1/Eya2 interaction inhibition | activity change, % (concentration not given with the values) | 360,000 compounds, 0.56% hits | AlphaScreen GST-Six1/His-Eya2 binding, biochemical; active compounds read low; control for the full effect not named in the record; in the data active = activity change below about -65%; inconclusive = about -30% to -65%; inactive = above about -30%; note: % is set by controls: 0 for no effect and ±100 for the full control effect
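Six1/Eya2 binding was read as AlphaScreen signal after compounds were pinned into GST-Six1 plus His-tagged Eya2 (5X stock 250/500 nM) in pH 8.0 Tris/NaCl/TCEP buffer, beads added, then incubated 1 h, 37 C, dark.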
gsp agonist – activates gsp, the McCune-Albright syndrome mutation | gsp mutant cells, cAMP HTRF, 30 min; control for the full effect not named in the record | Potency, µM (top dose mostly 76.9 µM), without a hit: at the top dose activation (cAMP increase), usual class: activators | 340,000 compounds, 0.13% hits | AID 624287; active = well fitted activation curve with a large enough effect; inconclusive = small, poorly fitted or top-dose-only effect, or another doubt; inactive = no such curve, though single readings can be large or run the other way; cell line not stated here;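 note: phosphodiesterase inhibitor Ro 20-1724 added with compounds to block cAMP breakdown; potency is the fitted concentration of half-maximal effect; nearly all actives have a fitted effect of over 60% in size; about a fifth of the inactives were tested at one dose only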
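Cells stably selected in G418 were plated at 2000/well, grown 16-24 hr, then given compounds in DMSO with the PDE inhibitor […] (300 uM solution added) for 30 min at 37C; cAMP was read by HTRF.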
gsp antagonist – antagonists of gsp mutant (McCune-Albright syndrome); gsp-mutant cells, cAMP HTRF, 30 min; control for the full effect not named in the record; 340,000 compounds, 0.4% hits; Potency, µM (doses to about 76.9 µM), for the others: at the highest dose activity change, negative = inhibition, usual class: inhibitors; AID 624288; active = falling curve of any shape with a large fitted effect; inconclusive = falling curve, mostly with a smaller effect; inactive = flat or rising curve; cell line not stated here;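 note: intracellular cAMP measured with PDE inhibitor Ro 20-1724 present during compound exposure; potency is the fitted concentration of half-maximal effect; % is set by controls: 0 for no effect and ±100 for the full control effect; nearly all actives have a fitted effect of over 65% in size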
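Cells in G418 medium, seeded 16-24 h, 37C; buffer exchange to DPBS + 1 mM CaCl2, 0.5 mM MgCl2, 0.05% BSA; cpds in DMSO + […] (300 uM stock), 30 min 37C; HTRF cAMP detection.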
An asterisk follows results filed as active; ? = inconclusive; · = no result given; [ ] = another dose, or the depositor's remark.

Molecule,D2 ag,CtBP-E1A inh,D2 PAM,Six1-Eya2 inh,gsp agonist,gsp antagonist
CCOP(=O)(c1ccccc1)C1(O)CCCCC1 (stereo not drawn),-2.5,0,3,2,-1%,4%
CC(=O)N1CCc2cc(S(=O)(=O)NCCC(=O)NCCc3ccc(Cl)cc3)ccc21,3.5,-7,-4,-1,-27%,-14%
Cc1cc(C)n(-c2cc(N3CCN(S(=O)(=O)c4ccc(Cl)cc4)CC3)ccc2[N+](=O)[O-])n1,3.2,-11,0,-16,2%,-14%
Cc1cc(C)n(CCOc2nonc2N)n1,-0.5,2,6,3,-13%,-3%
CC1CCN(c2ccc3c(c2)S(=O)(=O)c2cccc(C(=O)NC4CCCCC4)c2C3=O)CC1,-7.9,5,-3,10,3%,-14%
COc1ccc(OCC(=O)Nc2ccc(N3CCN(C(=O)c4ccccc4C)CC3)cc2)cc1,-1.9,-28,-1,-7,1%[15.4 µM],-5%
COC(=O)CCNS(=O)(=O)c1ccc2ccccc2c1,0.6,-3,-9,2,?,-3%
O=C(Nc1ccc(Cl)c(S(=O)(=O)N2CCOCC2)c1)[C@@H]1CCCN1C(=O)c1cccs1,-4.2,-1,-15,-4,26%,-19%
CC(=O)NS(=O)(=O)c1ccc(NC(=O)CSc2ccccc2)cc1,-1.6,2,-8,5,-1%,10%
CCCCNC(=O)C1(C)CCN1C(=O)c1cc(-c2ccccc2)cs1 (stereo not drawn),1.0,30,-3,11,·,·
Cc1nnc(SCC(N)=O)n1CC1CCCO1 (stereo not drawn),-2.9,2,-11,-1,-14%,-25%
O=C(Cc1c(C(=O)O)[nH]c2ccccc12)NCCN1CCN(c2ccccc2F)CC1,-2.3,-14,-8,1,-39%[inhibitor],10%
CC1(C)C2CCC(C2)C1(C)NC(=O)CN1CCOCC1 (stereo not drawn),0.4,5,19,3,23%,9%
CC(C(=O)Nc1ccccc1)N1CCN(C(=O)c2ccco2)CC1 (stereo not drawn),-5.6,3,-1,7,-30%[inhibitor],4%
CCOC(=O)CCCCCC(=O)Nc1ccc2c(c1)C(=O)N([C@H](C)CO)C[C@H](C)[C@H](CN(C)C(=O)C1CCCCC1)OCCCC[C@@H](C)O2,-5.2,0,-3,-4,-117%[inhibitor],·
NCCCCCNC(=O)c1nc[nH]c1C(=O)NCC(=O)OCc1ccccc1,?,-3,26,-4,·,7%
Cc1ccc(C)n1-c1ccc(C(=O)/C=C/N(C)C)cc1,1.7,-6,5,-1,16%[15.4 µM],-8%
O=C(N[C@@H](Cc1ccccc1)C(=O)O)c1c(F)c(F)c(F)c(F)c1F,1.9,·,-4,-6,?,13%
COCCCN1C(=O)C(=O)/C(=C(/O)c2ccc(C)cc2)C1c1ccccc1 (stereo not drawn),-1.4,-2,-14,-3,0%,9%
COc1ccc(C2CC(c3cccs3)=NN2C(=O)CCC(=O)O)cc1OC (stereo not drawn),3.1,11,10,15,3%,9%

2 entries drawn at random from the list so far:
Molecule,D2 ag,CtBP-E1A inh,D2 PAM,Six1-Eya2 inh,gsp agonist,gsp antagonist
O=C(Cc1c(C(=O)O)[nH]c2ccccc12)NCCN1CCN(c2ccccc2F)CC1,-2.3,-14,-8,1,-39%[inhibitor],10%
CC1(C)C2CCC(C2)C1(C)NC(=O)CN1CCOCC1 (stereo not drawn),0.4,5,19,3,23%,9%

Following part.
Molecule,D2 ag,CtBP-E1A inh,D2 PAM,Six1-Eya2 inh,gsp agonist,gsp antagonist
Cc1cccc(C(=O)NCCNC(=O)c2cnccn2)c1,3.3,5,-1,0,-6%,5%
COc1ccc2[nH]c3c(c2c1)CCN1C(=O)C(CC(=O)NCc2ccco2)C[C@H](C(=O)N2CCOCC2)[C@@]31CCC1CCCC1 (stereo partly drawn),-1.8,-11,-6,-12,·,-12%
NC(=O)C1(N2CCCCC2)CCN(CC(=O)Nc2ccc(Oc3ccccc3)cc2)CC1,1.9,2,-1,0,?,9%
CS(=O)(=O)N(Cc1ccc(Cl)cc1)c1ccc(C(=O)Nc2cccnc2)cc1,-0.5,3,-13,1,4%,-6%
CCOC(=O)c1c(NC(=O)c2cc(C)oc2C)sc(C(=O)Nc2ccc(Cl)cc2)c1C,-3.8,5,20,0,-5%,-7%
Cc1[nH]c2ccccc2c1C(=O)CN1CCSCC1,-5.5,9,10,2,-35%[inhibitor],-1%
CC(C)Oc1ccc(CNC(=O)CC(c2ccccc2)c2cc(Cl)ccc2O)cc1 (stereo not drawn),-0.3,-9,-4,-4,-32%[inhibitor],?
CN(C)/C=N/c1cnc(C(=O)c2ccc(Cl)cc2)n1C,1.9,-7,14,-4,18%,-20%
COc1ccc(S(=O)(=O)N2CCOC2CNC(=O)C(=O)NCC(C)C)cc1 (stereo not drawn),-5.0,9,-1,1,?,11%
COc1ccc(Cl)cc1C(=O)NNC(=O)C1CCCO1 (stereo not drawn),-3.3,1,-1,-1,-21%[15.4 µM],-1%
Cc1ccc(NC(=O)CN2C(=O)S/C(=C\c3cccn3C)C2=O)cc1,-0.2,13,-25,-2,?,7%
Cc1[nH]n(-c2ccccc2)c(=O)c1N=O,-2.6,-1,-11,3,5%[15.4 µM],?
COc1ccc(NC(=O)c2c(NC(=O)CNCc3ccco3)sc3c2CCC3)cc1,-4.9,-9,-14,-2,?,-3%
CC1(C(=O)NS(=O)(=O)c2cccc(Cl)c2)CCN1C(=O)Cc1ccc(Cl)cc1Cl (stereo not drawn),-4.0,-3,-6,-4,·,·
Cc1cccc(CN2CCN(C3CN(CCc4ccccc4)S(=O)(=O)C3)CC2)c1 (stereo not drawn),-3.7,-2,-9,-5,·,·
COc1ccccc1N1CCN(CCCNC(=O)Nc2ccccc2)CC1,?,-5,-12,2,-18%,1%
CN(Cc1ccccn1)Cc1nc(-c2ccc(Cl)cc2)no1,-6.4,-7,-14,-7,16%,5%
COc1ccc(CN(C)C(=O)c2ccc(NC(=O)CC3SC(N4CCCCC4)=NC3=O)cc2)c(OC)c1 (stereo not drawn),-1.0,-3,0,-7,21%,9%
CCOc1ccc(S(=O)(=O)n2nnc3ccccc32)cc1C,-5.1,7,-8,12,-1%,1%
Cc1ccc2nc(NC(=O)CCNS(=O)(=O)c3cccs3)sc2c1,-0.6,-2,6,-8,17%,?

Complete entries, quoted from the list. Order of screens: D2 ag	CtBP-E1A inh	D2 PAM	Six1-Eya2 inh	gsp agonist	gsp antagonist
`Cc1ccc(NC(=O)CN2C(=O)S/C(=C\c3cccn3C)C2=O)cc1` as listed: -0.2	13	-25	-2	?	7%
`Cc1cccc(C(=O)NCCNC(=O)c2cnccn2)c1` as listed: 3.3	5	-1	0	-6%	5%

Copied from the list:
CN(Cc1ccccn1)Cc1nc(-c2ccc(Cl)cc2)no1 in CtBP-E1A inh is listed with -7
COc1ccc2[nH]c3c(c2c1)CCN1C(=O)C(CC(=O)NCc2ccco2)C[C@H](C(=O)N2CCOCC2)[C@@]31CCC1CCCC1 (stereo partly drawn) in gsp antagonist is listed with -12%
COc1ccc(NC(=O)c2c(NC(=O)CNCc3ccco3)sc3c2CCC3)cc1 in gsp antagonist is listed with -3%

New compounds follow:
Molecule,D2 ag,CtBP-E1A inh,D2 PAM,Six1-Eya2 inh,gsp agonist,gsp antagonist
CN1CCN(/N=C/c2c3ccccc3c(Cl)c3ccccc23)CC1,0.1,0,-24,?,11%[15.4 µM],12%
O=C(CCC1COc2ccccc2O1)Nc1cccnc1 (stereo not drawn),-2.0,3,3,0,1%,6%
CC(C)C1CC(CCN2CCCCC2)(c2ccccc2)CCO1 (stereo not drawn),1.5,·,-15,5,-8%,-1%
COCc1nnc(SCC(=O)Nc2cccc(Cl)c2C)n1-c1ccccc1,-2.9,-2,-12,13,-16%,-3%
COCCCn1c(SCC(=O)n2c(C)c(C)c3ccccc32)nnc1-c1ccoc1C,-5.4,-3,-14,-10,-39%,?
COc1ccc(S(=O)(=O)N2CCC(C(=O)NC3CCCCC3C)CC2)cc1 (stereo not drawn),-1.7,-8,-6,3,5%[15.4 µM],-42%
COc1ccc(S(=O)(=O)N(C)C)cc1NC(=O)c1ccc(OCC(=O)N2CCOCC2)c(OC)c1,0.6,8,-2,0,-3%,6%
CCOC(=O)C1CCN(CCC(=O)Nc2ccc(C)c(C)c2)CC1,5.5,-1,-8,3,-40%[inhibitor],10%
CC(=O)c1ccc2c3c(cccc13)CC2,-0.7,-1,-3,5,-54%[inhibitor],-3%
CC(=O)c1c(C)[nH]c(C(=O)CN2CCN(S(=O)(=O)c3ccccc3F)CC2)c1C,-1.3,0,-4,-5,4%[15.4 µM],-16%
O=C(COC(=O)c1n[nH]c2ccccc12)NC(=O)NC1CCCCC1,0.0,-2,11,-1,-1%,-5%
C[C@@H]1CN([C@@H](C)CO)C(=O)CCCn2nncc2CO[C@H]1CN(C)C(=O)Nc1cccc2ccccc12,-1.3,5,7,-1,13%,·
CCOc1ccc(N2C(=O)c3cccnc3C2=O)cc1,-2.3,-14,4,-24,20%,4%
Cc1ccc2c(c1)c(CC(=O)Nc1ccc(F)cc1)c(C(=O)O)n2C,1.4,38,6,14,-46%[inhibitor],-12%
CCC12CN(S(=O)(=O)c3ccc(C)cc3)CC(CC)(CN(S(=O)(=O)c3ccc(C)cc3)C1)C2=O,-2.5,4,-8,-1,6%,2%
Cc1ccc(C(=O)CSc2nnc(-c3ccco3)n2C)cc1,-1.3,-3,0,10,-1%[15.4 µM],-2%
COc1ccc(C(=O)OCC(=O)c2ccc(Br)s2)c(OC)c1,-0.5,-2,22,1,18%,9%
NNC(=O)c1cccnc1Oc1ccccc1,-1.3,4,0,2,-30%,5%
O=C(NCc1ccco1)C1CCCCC1,-1.7,1,-4,12,4%,13%
CC(=O)NS(=O)(=O)c1ccc(NC(=O)c2cccc3ccccc23)cc1,0.9,-14,2,3,-8%,1%
O=C(Cn1c(=O)sc2ccccc21)NCCOc1ccccc1F,-1.1,7,0,9,6%,2%
O=C1CCCc2c1[nH]c1c(Br)cccc21,-3.6,-6,-10,-7,6%,-9%
C/C(=N\N=C1\NC(=O)C(CC(=O)O)S1)c1ccccn1 (stereo not drawn),-0.5,?,2,?,-23%[15.4 µM],8%
COc1ccccc1CNC(=O)COC(=O)c1cnccn1,-2.5,31,-21,25,5%,1%
CC1CCCCN1C(=O)Cn1cnc2cc([N+](=O)[O-])ccc2c1=O (stereo not drawn),-0.7,-2,5,4,1%[15.4 µM],5%
C=CCn1c(-c2cccc(OC)c2OC)n[nH]c1=S,-2.3,11,-6,-8,-2%[15.4 µM],7%
O=C(CSc1nnc(-c2ccncc2)o1)c1cccc([N+](=O)[O-])c1,0.3,-3,-1,0,5%[15.4 µM],-12%
